Screens from PubChem BioAssay.
FGF22 binding: binders of human FGF22 protein, primary screen, FGF22 synaptogenesis inhibitor project, biophysical, thermal shift, single point. AID 651658, 2012. calls only at 9.99 µM. hit rate 1.5% among 340,000. recombinant FGF22 thermal shift, SYPRO orange fluorescence; percent of sucrose octasulfate shift, DMSO zero. Fibroblast growth factor 22 (Homo sapiens), Q9HCT0;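 active = melting point raised past a set limit in the mean and every replicate; three in four hits are not shown here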
Target sequence (Q9HCT0 whole entry, looked up): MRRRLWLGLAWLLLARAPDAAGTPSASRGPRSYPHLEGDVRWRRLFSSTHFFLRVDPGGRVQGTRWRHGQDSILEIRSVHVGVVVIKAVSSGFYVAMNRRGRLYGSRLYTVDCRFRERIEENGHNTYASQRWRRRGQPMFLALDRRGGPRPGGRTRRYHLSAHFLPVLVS
Calls only; i = inactive; + = active, no number. This is a subset (hit frequency here may not be typical).

SMILES | FGF22 binding
N#C[C@@H]1[C@H](c2ccccc2C2=CCCCC2)[C@@H](CO)N1C(=O)C1CCOCC1 | i
CC(C)CC#Cc1ccc2c(c1)O[C@@H](CN(C)C(=O)CN(C)C)[C@H](C)CN([C@@H](C)CO)S2(=O)=O | i
Cn1cnc(S(=O)(=O)N[C@H]2C=C[C@@H](CC(=O)Nc3ccc(-c4ccccc4)cc3)O[C@@H]2CO)c1 | i
C[C@@H]1CN([C@@H](C)CO)C(=O)c2cccc(NC(=O)c3ccc(-c4nccs4)cc3)c2O[C@@H]1CN(C)C | +
C[C@H]1CN([C@@H](C)CO)C(=O)c2cc(NS(=O)(=O)c3ccc(F)cc3)ccc2O[C@H]1CN(C)Cc1ccc(C(F)(F)F)cc1 | i
C/C=C/c1ccc([C@H]2[C@@H](CNC(=O)c3ccccn3)N(C(=O)CC)[C@H]2CO)cc1 | i
COCC(=O)N(C)C[C@H]1Oc2cc(-c3ccccc3)ccc2S(=O)(=O)N([C@H](C)CO)C[C@@H]1C | i
CCNC(=O)C[C@H]1CC[C@@H]2[C@H](COc3ccc(NC(=O)c4cc(C)on4)cc3C(=O)N2C)O1 | i
CCCNC(=O)[C@@H]1[C@@H](CO)[C@@H]2Cn3c(cccc3=O)[C@H]1N2S(=O)(=O)c1ccccc1C | i
CC(C)NC(=O)N[C@H]1CC[C@@H](CCn2cc(-c3ccc(F)cc3)nn2)O[C@@H]1CO | i
C/C=C/c1cnc2c(c1)C(=O)N([C@@H](C)CO)C[C@H](C)[C@@H](CN(C)S(=O)(=O)c1ccccc1)O2 | i
COc1ccc(S(=O)(=O)Nc2ccc3c(c2)C(=O)N([C@H](C)CO)C[C@@H](C)[C@@H](CN(C)C)O3)cc1 | i
COCC(=O)N(C)C[C@@H]1Oc2ncc(-c3ccc(C#N)cc3)cc2C(=O)N([C@@H](C)CO)C[C@H]1C | i
CO[C@H]1CN(C)C(=O)c2ccc(NC(=O)C3CCOCC3)cc2OC[C@@H](C)N(CC2CC2)C[C@H]1C | i
COc1ccc(S(=O)(=O)N(C)C[C@@H]2Oc3c(NS(=O)(=O)c4ccc(Cl)cc4)cccc3C(=O)N([C@@H](C)CO)C[C@H]2C)cc1 | i
CCC(=O)N1CC2(C1)CN(S(C)(=O)=O)[C@@H](CO)c1c2c2ccc(OC)cc2n1C | i
CCC(=O)N(C)C[C@@H]1Oc2cc(Br)ccc2S(=O)(=O)N([C@H](C)CO)C[C@H]1C | i
COCC(=O)N(C)C[C@@H]1Oc2ncc(C#Cc3ccncc3)cc2C(=O)N([C@@H](C)CO)C[C@H]1C | i
C[C@@H]1CCCCO[C@@H](CN(C)Cc2ccc(Cl)c(Cl)c2)[C@H](C)CN([C@@H](C)CO)C(=O)c2cc(NC(=O)Nc3ccc(F)cc3)ccc2O1 | i
O=C(C[C@H]1C[C@@H]2c3cc(NC(=O)CC4CC4)ccc3O[C@@H]2[C@H](CO)O1)NCC1CC1 | i

Reprinted from the part before: 4 compounds, followed by the next part.
SMILES | FGF22 binding
CCC(=O)N(C)C[C@@H]1Oc2cc(Br)ccc2S(=O)(=O)N([C@H](C)CO)C[C@H]1C | i
COCC(=O)N(C)C[C@@H]1Oc2ncc(C#Cc3ccncc3)cc2C(=O)N([C@@H](C)CO)C[C@H]1C | i
C[C@@H]1CCCCO[C@@H](CN(C)Cc2ccc(Cl)c(Cl)c2)[C@H](C)CN([C@@H](C)CO)C(=O)c2cc(NC(=O)Nc3ccc(F)cc3)ccc2O1 | i
O=C(C[C@H]1C[C@@H]2c3cc(NC(=O)CC4CC4)ccc3O[C@@H]2[C@H](CO)O1)NCC1CC1 | i
CN1c2ccc(C3=CCCCC3)cc2[C@@H]2[C@@H](CCN2S(=O)(=O)c2ccccc2)[C@H]1CO | i
COc1ccc2c3c([nH]c2c1)[C@H](CO)N(C(=O)Nc1ccc(F)cc1)CC31CCN(Cc2cc(F)ccc2F)CC1 | i
CCCN1[C@@H]2c3ccc(-c4ccc(OC)cc4)c(=O)n3C[C@@H]2[C@@H](CO)[C@@H]1C(=O)OC | i
CN(C)CC(=O)N1CCCCN2[C@H](CO)[C@H](c3ccc(/C=C/c4ccccc4)cc3)[C@H]2C1 | i
C[C@H](CO)N1C[C@H](C)[C@H](CN(C)C(=O)Nc2ccc3c(c2)OCO3)Oc2c(NC(=O)Nc3ccccc3)cccc2C1=O | i
Cc1noc(C)c1S(=O)(=O)N(C)C[C@H]1OCCCC[C@@H](C)Oc2ccc(NC(=O)Nc3ccccc3)cc2C(=O)N([C@H](C)CO)C[C@@H]1C | i
Cc1cccc(S(=O)(=O)N2C[C@@H](O)COC[C@H]3O[C@@H](CC(=O)Nc4ccc(-c5ccccc5)cc4)CC[C@@H]32)c1 | i
C[C@@H]1CCCCO[C@@H](CN(C)Cc2ccc(C(=O)O)cc2)[C@H](C)CN([C@@H](C)CO)C(=O)c2cc(NC(=O)Nc3ccc4c(c3)OCO4)ccc2O1 | i
C[C@H](CO)N1C[C@H](C)[C@@H](CN(C)Cc2ccc(Cl)c(Cl)c2)Oc2ccc(NC(=O)CCCCCC(=O)Nc3ccccc3N)cc2CC1=O | i
C[C@H](CO)N1C[C@H](C)[C@@H](CN(C)S(=O)(=O)c2ccccc2)OCCCC[C@H](C)Oc2ccc(NC(=O)Nc3cccc4ccccc34)cc2C1=O | i
CCC(=O)Nc1ccc2c(c1)C(=O)N(C)C[C@H](OC)[C@@H](C)CN(C(=O)C1CC1)[C@@H](C)CO2 | i
COc1ccc(S(=O)(=O)Nc2cccc3c2O[C@H](CN(C)C(=O)Nc2ccc(F)cc2)[C@@H](C)CN([C@@H](C)CO)C3=O)cc1 | i
C[C@@H]1CN([C@H](C)CO)C(=O)Cc2cc(NC(=O)NC3CCCCC3)ccc2O[C@@H]1CN(C)S(=O)(=O)c1ccc(F)cc1 | i
Cc1noc(C)c1NC(=O)N(C)C[C@@H]1Oc2ccc(NC(=O)Nc3ccccc3)cc2C(=O)N([C@@H](C)CO)C[C@H]1C | i
Cc1ccccc1-c1ccc2c(c1)[C@@H]1C[C@H]3[C@@H](CN1CC2)[C@H](C)ON3C | i
COCC#Cc1ccc2c(c1)O[C@@H](CN(C)C(=O)C1CCOCC1)[C@@H](C)CN([C@H](C)CO)S2(=O)=O | i
C[C@@H]1CN([C@H](C)CO)C(=O)c2cc(NC(=O)Nc3cccc4ccccc34)ccc2O[C@H]1CN(C)CC1CCCCC1 | i
CCC(=O)N(C)C[C@H]1Oc2ncc(C#CC(C)(C)O)cc2C(=O)N([C@H](C)CO)C[C@H]1C | i
CCCN1C[C@H](C)[C@H](OC)CN(C)C(=O)c2ccc(NS(=O)(=O)c3ccccc3)cc2OC[C@@H]1C | i
C[C@@H]1CN([C@@H](C)CO)C(=O)c2cccc(NC(=O)NC3CCCCC3)c2O[C@H]1CN(C)Cc1ccc(Cl)c(Cl)c1 | i

The closing three records of the section above open the next one:
SMILES | FGF22 binding
CCC(=O)N(C)C[C@H]1Oc2ncc(C#CC(C)(C)O)cc2C(=O)N([C@H](C)CO)C[C@H]1C | i
CCCN1C[C@H](C)[C@H](OC)CN(C)C(=O)c2ccc(NS(=O)(=O)c3ccccc3)cc2OC[C@@H]1C | i
C[C@@H]1CN([C@@H](C)CO)C(=O)c2cccc(NC(=O)NC3CCCCC3)c2O[C@H]1CN(C)Cc1ccc(Cl)c(Cl)c1 | i
C[C@H](CO)N1C[C@H](C)[C@H](CN(C)C(=O)NC2CCCC2)Oc2ncc(C3=CCCCC3)cc2C1=O | i
O=C(C[C@@H]1CC[C@H]2[C@@H](COC[C@@H](O)CN2C(=O)Nc2ccc(C(F)(F)F)cc2)O1)NCCc1ccncc1 | i
Cc1ccc(S(=O)(=O)N[C@H]2CC[C@H](CCn3cc(C(C)C)nn3)O[C@H]2CO)cc1 | i
C[C@@H]1CN([C@@H](C)CO)C(=O)Cc2cc(NC(=O)Cc3ccccc3)ccc2O[C@H]1CN(C)S(=O)(=O)c1ccc(Cl)cc1 | i
COc1ccc(CN(C)C[C@@H]2OCCCC[C@@H](C)Oc3ccc(N(C)C)cc3C(=O)N([C@H](C)CO)C[C@H]2C)cc1 | i
COc1ccc(NC(=O)N(C)C[C@@H]2Oc3ccc(NC(=O)Nc4ccc(F)cc4)cc3C(=O)N([C@H](C)CO)C[C@@H]2C)cc1 | i
C[C@@H]1CN([C@H](C)CO)C(=O)c2cc(C3=CCCC3)cnc2O[C@H]1CN(C)Cc1ccc(F)cc1 | i
O=C(C1CCOCC1)N1C[C@@H]2[C@H](c3ccccc31)[C@@H](CO)N2Cc1ccc(Cl)cc1 | i
CCCNC(=O)C[C@H]1CC[C@H]2[C@H](COc3ccc(NC(=O)COC)cc3C(=O)N2C)O1 | i
C[C@H]1CN([C@@H](C)CO)C(=O)c2cc(NC(=O)c3ccncc3)ccc2O[C@H]1CN(C)Cc1ccc(-c2ccccc2)cc1 | i
CO[C@H]1CN(C)C(=O)c2cc(NC(=O)c3cccc(F)c3)ccc2OC[C@H](C)N(C)C[C@H]1C | i
O=C(C[C@@H]1CC[C@@H]2[C@H](COC[C@H](O)CN2C(=O)C2CC2)O1)NCc1ccncc1 | i
COc1ccc(CN(C)C[C@@H]2Oc3ccc(NC(=O)NC(C)C)cc3CC(=O)N([C@H](C)CO)C[C@@H]2C)cc1 | i
C[C@H](NC(=O)C[C@@H]1CC[C@@H](NS(=O)(=O)c2cccc(F)c2)[C@@H](CO)O1)c1ccccc1 | i
Cc1noc(C)c1S(=O)(=O)Nc1ccc2c(c1)C(=O)N([C@H](C)CO)C[C@H](C)[C@H](CN(C)Cc1ccncc1)OCCCC[C@H](C)O2 | i
C[C@H](CO)N1C[C@H](C)[C@@H](CN(C)CC2CC2)Oc2cc(C#CC3(O)CCCC3)ccc2S1(=O)=O | i
O=C(N[C@@H]1CC[C@@H](CCNS(=O)(=O)c2ccc(F)cc2)O[C@@H]1CO)C1CCC1 | i
C[C@@H]1CN([C@@H](C)CO)C(=O)c2cc(NS(=O)(=O)c3cn(C)cn3)ccc2O[C@@H](C)CCCCO[C@@H]1CN(C)S(=O)(=O)c1cn(C)cn1 | i
C[C@H](CO)N1C[C@H](C)[C@H](CN(C)Cc2ccncc2)Oc2ccc(NS(=O)(=O)c3cn(C)cn3)cc2CC1=O | i
COc1ccc(-c2ccc3c(c2)[C@@H]2[C@@H](CCN2C(=O)NC2CCCCC2)[C@@H](CO)N3C)cc1 | i
CCCN(C)C[C@@H]1Oc2cc(C#CCC(C)C)ccc2S(=O)(=O)N([C@@H](C)CO)C[C@@H]1C | i
COc1ccc(NC(=O)Nc2cccc3c2O[C@@H](CN(C)Cc2ccc(C(=O)O)cc2)[C@@H](C)CN([C@H](C)CO)C3=O)cc1 | i
C[C@H](NC(=O)C[C@H]1C=C[C@@H](NC(=O)CN2CCOCC2)[C@H](CO)O1)c1ccccc1 | i
C[C@@H]1CCCCO[C@@H](CN(C)Cc2ccc(C(=O)Nc3ccccc3N)cc2)[C@@H](C)CN([C@H](C)CO)C(=O)c2cc(NC(=O)c3ccncc3)ccc2O1 | i
CN1[C@H](C(=O)NC2Cc3ccccc3C2)[C@@H](CO)[C@@H]2Cn3c(ccc(-c4cccnc4)c3=O)[C@@H]21 | i
COc1ccccc1S(=O)(=O)N[C@H]1CC[C@@H](CCn2cc(C3CC3)nn2)O[C@@H]1CO | i
C[C@@H]1CN([C@H](C)CO)C(=O)c2cc(Br)cnc2O[C@H]1CN(C)Cc1ccncc1 | i
Cc1ccc(-c2cnc3c(c2)C(=O)N([C@H](C)CO)C[C@@H](C)[C@@H](CN(C)CC2CCCC2)O3)cc1 | i
COc1ccc(S(=O)(=O)Nc2ccc3c(c2)C(=O)N([C@H](C)CO)C[C@H](C)[C@H](CN(C)C)OCCCC[C@H](C)O3)cc1 | i
O=C(NCC[C@H]1CC[C@H](NC(=O)C2CC2)[C@H](CO)O1)c1cnccn1 | i
CCCC(=O)Nc1ccc2c(c1)C(=O)N(C)[C@H]1CC[C@H](CC(=O)NCCCN(C)C)O[C@H]1CO2 | i
C[C@@H]1CN([C@@H](C)CO)S(=O)(=O)c2ccc(/C=C/c3ccccc3)cc2O[C@H]1CN(C)C | i
C[C@@H]1CCCCO[C@@H](CN(C)C(=O)Nc2ccc(C(F)(F)F)cc2)[C@H](C)CN([C@@H](C)CO)C(=O)c2cc(NC(=O)Cc3ccccc3)ccc2O1 | i
C[C@H](CO)N1C[C@H](C)[C@@H](CN(C)C)OCCCC[C@H](C)Oc2ccc(NC(=O)Nc3cccc4ccccc34)cc2C1=O | i
Cc1noc(C)c1NC(=O)Nc1cccc2c1O[C@@H](CN(C)Cc1ccc(C(=O)Nc3ccccc3N)cc1)[C@H](C)CN([C@@H](C)CO)C2=O | i
C[C@@H]1CN([C@H](C)CO)S(=O)(=O)c2ccc(C#C[C@@H](C)O)cc2O[C@H]1CN(C)Cc1ccc(-c2ccccc2)cc1 | i
C[C@@H]1CN([C@@H](C)CO)C(=O)c2cc(NS(=O)(=O)c3ccc(Cl)cc3)ccc2O[C@@H]1CN(C)S(=O)(=O)c1ccc(Cl)cc1 | i
C[C@@H]1CN([C@H](C)CO)C(=O)Cc2cc(NC(=O)Nc3ccc4c(c3)OCO4)ccc2O[C@@H]1CN(C)C(=O)Nc1ccc2c(c1)OCO2 | i
CC(C)NC(=O)Nc1ccc2c(c1)C(=O)N(C)[C@@H]1CC[C@@H](CC(=O)NCC3CCCCC3)O[C@H]1CO2 | i
CN1C(=O)c2cc(NS(=O)(=O)c3ccc(Cl)cc3)ccc2OC[C@@H]2O[C@@H](CC(=O)O)CC[C@@H]21 | i
CC(C)CC#Cc1ccc([C@H]2[C@H](CO)N3CCCCN(C(=O)c4ccc5c(c4)OCO5)C[C@@H]23)cc1 | i
CCCNC(=O)N1[C@@H](CO)[C@@H]2c3ccccc3N(C(=O)Nc3cccc(Cl)c3)C[C@@H]21 | i
COc1ccc(S(=O)(=O)N(C)C[C@H]2Oc3ccc(NC(=O)C4CCCCC4)cc3C(=O)N([C@H](C)CO)C[C@H]2C)cc1 | i
CCN(C[C@@H]1[C@@H](c2ccccc2)[C@H](CO)N1C(=O)C1CC1)C(=O)NC1CCCC1 | i
COc1ccc(CN(C)C[C@H]2Oc3ccc(NC(=O)Nc4ccccc4)cc3CC(=O)N([C@@H](C)CO)C[C@H]2C)cc1 | i
